V. cholerae motility: Vibrio cholerae motility inhibitors, OD read-out (AID 588778) | inhibition, %, or IC50 in µg/mL where a hit was titrated | Vibrio cholerae motility, OD read-out; higher % means a stronger effect; test concentration not given here; primary cut-off and reference of the scale not given here; strong numbers were not always called active | 10,000 tested, under 10 active; in the data active means confirmed in a dose series; inconclusive means primary hit not retested
V. cholerae motility viability: also measured in V. cholerae motility; calls as there; inhibition, %; measured here: bacterial viability at 10 ug/mL;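 higher means fewer living bacteria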
* = called active by the depositor; ? = inconclusive; · = not tested or not shown. The list is partial; the hit share may differ from the screen's.

SMILES | V. cholerae motility | V. cholerae motility viability
O=C(Nc1c(F)cc(F)cc1Br)C1CCCO1 (centres undefined) | -8% | -2
Nc1nc(NC(=O)c2ccco2)nn1-c1ccccc1 | 11µg/mL* | 39*
Cc1cc(NC(=O)c2cc(-c3ccccc3)nc3ccccc23)no1 | 12% | -2
C#CCOC(=O)C1C2C=CC(C2)C1C(=O)O (centres undefined) | 3% | -10
Cc1sc(NC(=O)CSc2nnc(CNC(=O)c3cccc([N+](=O)[O-])c3)n2C)nc1-c1ccccc1 | -8% | -11
O=C(Cc1c(F)cccc1Cl)Nc1ncccn1 | 2% | -3
Cc1cc(C)c(CCl)c(C)c1/C=N/Nc1ccc([N+](=O)[O-])cc1[N+](=O)[O-] | ? | ·
CCc1c(C(=O)NNC(=S)Nc2ccc3c(C)cc(=O)oc3c2)csc1C | 25% | 9
O=C(Cn1cc(C(=O)c2ccccc2)c2ccccc21)NC1CCCCC1 | 0% | -11
O=C(NC12CC3CC(CC(C3)C1)C2)N1CCN(c2ccccn2)CC1 | -2% | 5
COc1ccc(CSCC(=O)Nc2ccccc2SC)cc1 | 7% | 6
N/C(Cc1cccc2ccccc12)=N\OC(=O)c1ccc2c(c1)OCO2 | -12% | -4
S=c1[nH]nc(Cc2ccc(Cl)cc2)o1 | -3% | 0
Nc1ccc(SC(F)(F)F)cc1C(=O)c1ccccc1 | 3% | 2
CC(=O)c1ccc(N2CCN(c3cc(C)c([N+](=O)[O-])cc3F)CC2)c(F)c1 | 4% | 10
O=C(NC(=S)c1ccccc1)Nc1ccc(F)cc1 | 2% | -3
O=C(Nc1ccccc1F)C1(c2ccccc2)CC1(Cl)Cl (centres undefined) | 3% | -3
CSc1nnc(SCCn2c([N+](=O)[O-])cnc2C)s1 | 10% | 1
CCOc1cc(C=O)c(Br)cc1OC1CCCC1 | 0% | -3
COCCNC(=O)c1nn2c(c1Br)NC(c1cccs1)CC2C(F)(F)F (centres undefined) | 0% | -7
COC(=O)c1sccc1NC(=O)COc1ccc(Cl)cc1Cl | -4% | -1
O=C(Cc1cccs1)Nc1nnc(-c2ccncc2)s1 | 13% | 19
CC(C)c1csc2nc3n(c(=O)c12)CCCCC3 | 14% | 4
Cc1cc(OC(C)C(=O)NCc2ccncc2)cc(C)c1Cl (centres undefined) | 13% | -2
CC(Sc1nc2ccccc2[nH]1)c1nc2ccccc2[nH]1 (centres undefined) | 23% | 7
CCOc1ccc(NC(=O)c2cnc(-c3ccccc3)nc2)cc1 | -10% | -7
O=C(O)c1ccc(-c2cccc(Cl)c2Cl)o1 | -8% | -7
Cc1c(C(=O)Nc2nnc(C(F)(F)F)s2)oc2ccccc12 | 16% | 26
CCOc1ccc2c(c1)sc1nc(=O)n(-c3ccccc3)c(=O)n12 | 5% | -4
CCOC(=O)c1ccc(NS(=O)(=O)c2ccc(Cl)s2)cc1 | 3% | 5
COc1ccccc1NC(=O)CSCc1nc2ccccc2[nH]1 | 14% | 1
O=C(NC(=S)Nc1cc(-c2nc3ccccc3[nH]2)ccc1Cl)c1ccc2c(c1)OCO2 | 3% | -3
CCOC1=NS(=O)(=O)c2ccccc21 | 1% | 3
COC(=O)c1ccccc1NC(=O)CSc1nnc(NC(C)=O)s1 | -8% | -3
O=C(NNC(=O)c1c(F)c(F)c(F)c(F)c1F)c1ccccc1 | -1% | -3
O=S(=O)(Nc1cccnc1)c1ccc(Br)c2ccccc12 | 10% | -7
CCOC(=O)CSC1=C(C#N)C(c2ccccc2[N+](=O)[O-])C(C(C)=O)=C(C)N1 (centres undefined) | -10% | 1
O=C1Nc2cc(Cl)ccc2SC2CCCCC2O1 (centres undefined) | 14% | 1
CC(=O)NNc1ccc(Br)cc1 | 105% | 58
COc1ccc(CCCC(=O)Nc2ccc(Br)c(Cl)c2)cc1 | 14% | 2
c1ccc(C2Cc3c(sc4c3c3nncn3c3nncn43)C(c3ccccc3)S2)cc1 (centres undefined) | -37% | -8
O=C(Cc1ccc(Br)cc1)NCc1ccccc1Cl | -1% | 1
COC(=O)c1ccccc1NC(NC(=O)c1ccccc1C)C(Cl)(Cl)Cl (centres undefined) | -8% | 6
CCOC(=O)C1=C(C)N=c2s/c(=C\c3cc(Cl)cc(Cl)c3O)c(=O)n2C1c1ccccc1Cl (centres undefined) | -11% | -4
O=[N+]([O-])c1ccc(Nc2ccc(Cl)cc2)nc1 | 43% | 5
C(=C\c1ccccc1)/CSc1nnc(-c2ccccc2)o1 | 12% | 4
COc1ccc2sc(C(=O)O)c(Br)c2c1 | -2% | 29
CC(=O)Nc1ccc(S(=O)(=O)NNC(=S)NCc2ccc(Cl)cc2)cc1 | 23% | 24
C#CCn1cc(/C=C/[N+](=O)[O-])c2ccccc21 | 190% | 67
CC1=C(C(=O)OC(C)C)C(C2CC=CCC2)NC(=O)N1 (centres undefined) | 17% | -1
Cc1c(C(=O)NCCCn2ccnc2)oc2c1C(=O)CC(C)(C)C2 | 4% | -3
CCOC(=O)c1sc(NC(=O)C(F)(F)F)c(C(=O)OCC)c1C | 13% | -5
S=C(Nc1ccccc1)Nc1ccccc1-c1ccccc1NC(=S)Nc1ccccc1 | 42% | 11
CCOC(=O)c1c(CS(=O)(=O)c2ccccc2)n(C)c2cc(Br)c(O)c(CN(C)C)c12 | -14% | -6
CCOc1ccc2nc(/N=C(/N)NC(=O)c3ccccc3NC)nc(C)c2c1 | -17% | -14
CCCOc1ccc(Nc2cc(C)nc3ccc(Cl)cc23)cc1 | 3% | 2
COc1ccc(NC(=O)CSc2nc(-c3cccs3)cc(C(F)(F)F)n2)c([N+](=O)[O-])c1 | 19% | 17
CC(C)c1c(-c2ccccc2)[n+](=O)c2c(n1[O-])CCC2 | 3% | -2
CC1Cc2ccccc2N1C(=O)Cc1cccs1 (centres undefined) | 2% | 2
Cc1nn(C)c(C)c1NC(=O)c1ccc(S(=O)(=O)N(C)C)cc1 | -12% | -7

New compounds follow:
SMILES | V. cholerae motility | V. cholerae motility viability
c1ccc(CNc2nnc(-c3cccnc3)s2)cc1 | 11% | 3
O=Cc1ccc(SCc2ccco2)o1 | -11% | 0
CCOC(=O)CCC(=O)NNC(=O)COc1ccc(-c2ccccc2)cc1 | -3% | -6
COc1ccc2c(c1)C(C)=CC(C)(C)N2C(=O)CSc1nnc(-c2ccc(C)cc2)o1 | 5% | 2
O=C1c2cccc3cccc(c23)C(=O)N1CCc1n[nH]c(=S)n1-c1ccccc1 | 3% | -7
O=c1nc(N2CCCCCC2)nc(N2CCCCCC2)[nH]1 | -22% | -8
O=C(Nc1ccccc1C(=O)NC12CC3CC(CC(C3)C1)C2)c1ccccc1F | -3% | -2
CCOC(=O)C1=C(SCc2ccccc2)NC(=O)C(C#N)C12CCCCC2 (centres undefined) | -21% | -4
COc1ccccc1-n1c(/C=C/c2ccc(Cl)cc2Cl)nc2ccccc2c1=O | 13% | 0
CCOC(=O)C1C(=O)C=C(/C=C/c2cccs2)CC1c1ccccc1 (centres undefined) | 0% | -3
O=C(c1cnn2c(-c3ccccc3)cc(-c3ccccc3)nc12)n1ccnc1 | -3% | -5
COc1ccc(S(=O)(=O)Nc2ccccc2C(=O)NCc2ccco2)cc1Br | 11% | 2
Cc1cc(Cl)ccc1OCC(=O)Nc1ccccc1N1CCOCC1 | 11% | 29
COC(=O)c1ccc(CSc2nccn2C)cc1 | 27% | -8
COc1cc(C(=O)O)cc(Cl)c1OC1CCCC1 | -3% | 4
COC(=O)c1ccc2c(c1)nc(C)n2-c1ccccc1 | 11% | 33
COc1ccc(S(=O)(=O)N(C)CC(=O)Nc2cc([N+](=O)[O-])ccc2C)cc1C | 1% | -4
COc1ccc(C2(CNC(=O)c3ccc(Br)o3)CCCC2)cc1OC | 1% | -2
O=C(COc1cc(Cl)c(Cl)cc1Cl)N1CCc2ccccc2C1 | 12% | -1
Cc1cc(NC(=O)c2cnn3cc(Br)cnc23)n(-c2ccccc2)n1 | -13% | -5
CC(NC(=S)Nc1ccc(F)c(Cl)c1)c1ccc2c(c1)OCO2 (centres undefined) | 58% | 49
C=CCn1c(N)cc(=O)nc1SCC(=O)Nc1nc(-c2ccccc2)cs1 | 6% | 2
O=C(NC(NC(=S)Nc1cccc(C(=O)O)c1)C(Cl)(Cl)Cl)OCc1ccccc1 (centres undefined) | 3% | -2
COc1ccc([N+](=O)[O-])c2c1NC(c1ccncc1)C1CC=CC21 (centres undefined) | -9% | -5
CCc1cc(C(=O)OC)c(NC(=S)Nc2cn(CC)nc2C(N)=O)s1 | -5% | -6
COc1ccc(NS(=O)(=O)C2CCS(=O)(=O)C2)cc1 (centres undefined) | 12% | -7
Cc1ccc(C(=O)N2CCN(S(=O)(=O)c3ccc(C)c([N+](=O)[O-])c3)C2)cc1 | -10% | -2
Cc1cc(NS(=O)(=O)c2ccc(NC(=O)COc3ccccc3Cl)cc2)no1 | 10% | -7
CCC(c1nc2ccccc2c(=O)n1-c1ccccc1OC)N1C(=O)c2ccccc2C1=O (centres undefined) | -13% | -8
CSc1nnc(-c2sc3ccccc3c2Cl)n1-c1ccccc1 | 7% | 32
O=C(NNC(=S)NCc1ccco1)C1c2ccccc2Oc2ccccc21 | 21% | 3
COC(C(=O)Nc1cc([N+](=O)[O-])ccc1C)c1ccccc1 (centres undefined) | 4% | -3
CCOC(=O)c1csc(Nc2ccccn2)n1 | -1% | 6
Cc1c(C#N)c2ccccc2n1CC(=O)NCCc1c[nH]c2ccccc12 | 4% | -1
Cn1c(=O)n2ncnc2c2c3c(sc21)CCCC3 | -2% | -4
COc1ccc(S(=O)(=O)N/N=C(/C2CCCCC2)C(F)(F)F)cc1 | 3% | -2
O=C(Nc1ccc(Cl)cc1)C(=O)NC1CC1 | 0% | -1
CC(C)OC(=O)c1cccc(NC(=O)CSc2nc3ccccc3n2C)c1 | 7% | 5
COC(=O)c1c(NC(=O)c2ccccc2N(C)S(C)(=O)=O)sc2c1CCCC2 | 5% | 1
Cc1cc(/C=C(/C#N)c2nc3ccccc3[nH]2)c(C)n1NC(=O)c1ccccc1 | 8% | -2
Cc1ccc(C(=O)/C=C/c2cn(Cc3ccccc3)c3ccccc23)cc1 | -6% | -6
CCOc1cc(S(=O)(=O)N(C)C)ccc1Cl | 6% | 3
Cc1cc(Cl)ccc1OCC(=O)n1cnc2ccccc21 | -13% | -5
COc1ccc(NC(=O)NNC(=O)C2(C)CC2(Cl)Cl)cc1OC (centres undefined) | -10% | -4
CCOc1ccc(S(=O)(=O)O)c(C)c1 | 7% | -11
COCc1nc(-c2cc(Br)ccc2OC)no1 | 15% | 8
O=C(CSc1nc2c(c(C(F)(F)F)n1)CCc1ccccc1-2)NCc1ccc2c(c1)OCO2 | 27% | 3
COc1cc(C(=S)N2CCCC2)ccc1OS(=O)(=O)c1ccc(Br)cc1 | -11% | -3

Fetched by compound from the list above:
SMILES | V. cholerae motility | V. cholerae motility viability
COCc1nc(-c2cc(Br)ccc2OC)no1 | 15% | 8
Cc1cc(Cl)ccc1OCC(=O)n1cnc2ccccc21 | -13% | -5
CC(C)OC(=O)c1cccc(NC(=O)CSc2nc3ccccc3n2C)c1 | 7% | 5
CCOc1ccc(S(=O)(=O)O)c(C)c1 | 7% | -11
Cc1ccc(C(=O)/C=C/c2cn(Cc3ccccc3)c3ccccc23)cc1 | -6% | -6
COc1cc(C(=S)N2CCCC2)ccc1OS(=O)(=O)c1ccc(Br)cc1 | -11% | -3
O=C(CSc1nc2c(c(C(F)(F)F)n1)CCc1ccccc1-2)NCc1ccc2c(c1)OCO2 | 27% | 3

More entries:
SMILES | V. cholerae motility | V. cholerae motility viability
O=C(CSc1nnc(Cc2ccccc2)o1)Nc1nccs1 | -11% | -9
Cc1nc2cc(NC(=O)Nc3nccs3)ccc2n1C | 24% | 36
Cc1nc(N2CCN(C(c3ccccc3)c3ccccc3)CC2)[nH]c(=O)c1C | -1% | -5
OCCNCc1cc(Br)ccc1OCc1ccc(F)cc1 | 36% | 11
N#CC(C(=O)NCc1ccc2c(c1)OCO2)c1ccccc1 (centres undefined) | 24% | 2
CC(=O)Oc1ccc(-c2cccc(C(=O)N(C)c3ccc(O)cc3)c2)cc1 | 2% | -2
Cc1cc(C)c2c(CC(=O)N(CCC#N)Cc3cccnc3)coc2c1 | 4% | 2
Nc1nc(CSc2ncn(-c3ccccc3)n2)cs1 | 22% | 12
O=C(NCCc1ccc(Cl)cc1)c1cnccn1 | -7% | -12
O=C(CCC1CCCC1)NCCNC(=O)CCC1CCCC1 | 10% | -2
CCOC(=O)c1c(NC(=O)C(CC)Sc2nc(N)cc(=O)[nH]2)sc2c1CCCC2 (centres undefined) | -2% | -7
Cc1ccc(S(=O)(=O)Cc2cccc(C(=O)N3CCCC3)c2)cc1 | 2% | -1

Reformatted with values under each structure: part of the list above
Each structure is followed by: V. cholerae motility, V. cholerae motility viability
CCOC(=O)c1csc(Nc2ccccn2)n1
  -1%, 6
Cc1c(C#N)c2ccccc2n1CC(=O)NCCc1c[nH]c2ccccc12
  4%, -1

Following part:
SMILES | V. cholerae motility | V. cholerae motility viability
CC1=C(C(=O)Nc2ccccn2)C(c2ccc3c(c2)OCO3)C2=C(CC(c3cccs3)CC2=O)N1 (centres undefined) | -2% | 1
COC(=O)c1ccc(NC(=S)NCCSc2ccc(C)cc2)cc1 | 25% | -1
CCCCc1ccc(NC(=S)NNC(=O)c2ccccc2F)cc1 | 1% | -14
CCOc1cc(C(=O)Nc2ccc(Br)c(C)n2)cc(OCC)c1OCC | 0% | 1
CN(C)Cc1ccc(C(=O)Oc2ccc(C(C)(C)C)cc2)cc1 | -9% | -2
Cc1cc(C)c(S(=O)(=O)Nc2ccc(Br)c(Cl)c2)c(C)c1 | 15% | 20
O=C1/C(=c2\sc3nc(-c4cccs4)nn3c2=O)c2ccccc2N1Cc1ccccc1F | -4% | -1
COc1ccc(OCC(=O)Nc2cccc(-c3nc4ccccc4c(=O)o3)c2)cc1 | -14% | -3
OCc1cccn1-c1ccc(I)cc1 | -3% | -2
CCN1CCN(CCOc2ccc(I)cc2)CC1 | 9% | 7

Source: PubChem
